Compound activity deposited in PubChem BioAssay by National Center for Advancing Translational Sciences (NCATS).
VACV Venus inh: inhibitors of vaccinia virus (Venus reporter) | Vaccinia virus Venus reporter expression, fluorescence | Potency, µM (top dose mostly 36.5 µM), inactives show top-dose activity change, negative = inhibition, most hits filed as inhibitors | 0.46% of 330,000 active | AID 720580; active means well fitted inhibition curve with a large enough effect; inconclusive means small, poorly fitted or top-dose-only effect; inactive means no such curve, though single readings can be large or run the other way; tested in A549 cells; further: nearly all actives have a fitted effect of over 30% in size; inactives centre near -10
Vaccinia mCherry: inhibitors of vaccinia virus infection (mCherry reporter signal) | Vaccinia virus mCherry reporter infection, fluorescence; about a quarter of the inactives have no number | AID 720579 | 0.63% of 310,000 active | Potency, µM (highest dose often 36.5 µM), without a hit: at the highest dose activity change, negative = inhibition, hits mostly inhibitors; active = well fitted inhibition curve with a large enough effect; inconclusive = small, poorly fitted or top-dose-only effect; inactive = no such curve, though single readings can be large or run the other way; tested in A549 cells; further: nearly all actives have a fitted effect of over 35% in size; inactives centre near -10
Active calls of the source: *; i = inactive; u = inconclusive; x = no result given; & = joins results of further samples; [ ] = remark or other dose. On the % scale 0 is the no-effect control and ±100 the full control effect; potency means the concentration at half of the fitted maximal effect.

SMILES	VACV Venus inh	Vaccinia mCherry
CCN(Cc1ccccc1)C(=O)CCS(=O)(=O)c1ccc2c(c1)oc(=O)n2C	-19.1%&-12.7%	-16.8%
O=C(Nc1ccc(Br)c2ccccc12)c1ccc2ccccc2c1O	u	u
CCOC(=O)C1=C(CC)Nc2ccccc2N=C1NC(=O)Cn1cnc2ccccc2c1=O	-7.6%	i
Cc1cc(C)cc(NC(=S)N=Nc2c(O)n(C)c3ccc(S(=O)(=O)N4CCOCC4)cc23)c1	-20.7%	-1.1%
Cc1cc(C)cc(Nc2ccc([N+](=O)[O-])nc2[N+](=O)[O-])c1	-3.9%	-10.5%
COc1ccc(-c2nc(CS(=O)(=O)CC(=O)NCc3cccc(F)c3)c(C)o2)cc1	-27.3%	-6.5%
O=C(NCc1ccccc1)c1cccc(NC(=O)N2CCSc3ncccc32)c1	-6.2%	-10.0%
CN(Cc1cccc(-n2cccn2)c1)Cc1cn(C)nc1-c1ccccc1F	0.6%	-9.4%
Cc1n[nH]c(C)c1S(=O)(=O)N1CCCC(C(=O)Nc2ccc(Cl)cc2)C1 (stereo not given)	u	u
Cc1cc[n+]2n1CC(O)C2 (stereo not given)	-6.2%	i
c1cc2c3c(cccc3c1)NC1(CCCCCC1)N2	-6.8%	-11.9%
O=C(Nc1ncccc1O)c1ccc(Cl)c(S(=O)(=O)N2CCCCCC2)c1	-20.4%	-17.8%
CC(=O)OC(COc1ccc(F)cc1)Cn1cnc2ccccc21 (stereo not given)	-5.9%	-3.7%
COc1cccc(-c2cc(C(=O)N3CCN(Cc4ccc5c(c4)OCO5)CC3)on2)c1	-8.8%	-12.6%
Cc1nn(-c2ccccc2)c2sc(C(=O)OC3CCOC3=O)cc12 (stereo not given)	-3.2%	-17.7%
COc1cccc(N2CCN(C(=O)CN(c3ccc(C)cc3)S(=O)(=O)c3c(C)n[nH]c3C)CC2)c1	-15.8%	u
CCN(CC)c1cc2c(cc1F)c(=O)c(S(=O)(=O)c1ccc(OC)cc1)cn2CC	-5.5%[7.34 µM]	-7.1%[7.34 µM]
Cc1ccc(/C=N\n2c(-c3ccccc3)n[nH]c2=S)s1	-15.5%	-0.4%
CN(Cc1nc(-c2cnccn2)no1)Cc1n[nH]c2c1CCCCC2	-2.3%	-11.4%
CCOc1ccc(NC(=O)c2cnc3sc(N4CCOCC4)nn3c2=O)cc1	-12.1%	i
CC(C)NC(=O)N(C)C[C@H]1Oc2ccc(NC(=O)Nc3ccc4c(c3)OCO4)cc2C(=O)N([C@H](C)CO)C[C@@H]1C	-9.7%	-1.2%
C=CCN(c1ccccc1)S(=O)(=O)c1ccc2c(c1)N(C(C)=O)CCO2	0.5%[7.34 µM]	6.5%[7.34 µM]
N/C(=N\OC(=O)CCCOc1ccccc1)c1ccc(Br)cc1	-0.7%	x
CC(=O)Nc1nc(C)c(C(C)=O)s1	-10.5%	-20.4%

Reprinted at random: 2 compounds from above, in no set order.
SMILES	VACV Venus inh	Vaccinia mCherry
CC(=O)Nc1nc(C)c(C(C)=O)s1	-10.5%	-20.4%
CN(Cc1cccc(-n2cccn2)c1)Cc1cn(C)nc1-c1ccccc1F	0.6%	-9.4%

More results.
SMILES	VACV Venus inh	Vaccinia mCherry
CCC1(c2ccccc2)NC(=O)N(CC(=O)Nc2ccccc2N2CCCC2)C1=O (stereo not given)	-28.4%	u
COc1ccccc1NS(=O)(=O)c1cc(NC(=O)CCC(=O)c2cccs2)ccc1Cl	-22.6%	-0.6%
Cc1nc(CN2CCN(Cc3nc(C(c4ccccc4)c4ccccc4)no3)CC2)cs1	1.6%	-10.5%
CCCCCN1C(C(=O)c2ccccc2)=C(OC(=O)CC)c2ccccc2S1(=O)=O	u	u
CCn1nc(CC(=O)Nc2ccc(-n3cnnn3)c(C)c2)c2ccccc2c1=O	-13.5%	i
CCCOc1ccc2c(c1)C(=NN=C(N)N)c1cc(OCCC)ccc1-2	u	u
Cc1cc(C)c2nc(N3CCOCC3)c(C#N)cc2c1	1.6%	i
Fc1ccccc1C(NCCc1ccc(Cl)cc1)c1nnc(-c2ccccc2)o1 (stereo not given)	-12.3%	-19.4%
CN(C(=O)CCNC(=O)N1CC(=O)Nc2ccccc21)C1CCCCC1	u	-7.7%
CCC1CCCCN1S(=O)(=O)c1ccc(NC(=O)c2cc(=O)c3ccccc3o2)cc1 (stereo not given)	-16.2%	-9.5%
COc1ccc2cc3cc(C(=O)NCCN4CCN(c5ccccc5F)CC4)oc3nc2c1	-8.1%	-16.0%
C=CCCC(=O)Nc1nc(C)c(-c2csc(Nc3cc(Cl)ccc3OC)n2)s1	u	u
O=C(C[C@H]1C[C@H](C(=O)N2CCCCC2)[C@@]2(CCc3ccccc3)c3[nH]c4ccc(Cl)cc4c3CCN2C1=O)NCCc1ccccn1	12.6µM*	u
Cc1cc(=O)n(Cc2ccccc2)c2c1c(C)nn2C	-8.5%	-3.3%
O=C(Nc1ccc(Cl)cc1)c1cc(S(=O)(=O)N2CCCCC2)ccc1N1CCOCC1	-15.9%	-10.2%
NS(=O)(=O)c1cccc(NC(=O)c2cc3ccccc3o2)c1	1.2%	-5.0%
CCc1nc2ccc(C(=O)N3CCN(c4ccccc4)CC3)cn2c1N(C)CCCc1ccccc1	-5.0%	i
Cc1ccc(C)c(OCc2nc3ccccc3[nH]2)c1	10.2%	4.9%
COc1ccc(N2CCN(C(CNC(=O)c3ccco3)c3cccnc3)CC2)cc1 (stereo not given)	-19.5%	x
COC(=O)CCC(=O)OC1(C)C(=O)C2=CN(C3CCCC3)C(c3ccc(OC)cc3)=CC2=C(Br)C1=O (stereo not given)	2.9%	-4.3%
Cc1ccc(S(=O)(=O)N/N=C/c2ccc(C(=O)O)cc2)cc1	-5.4%	x
CC(NC(=O)COC(=O)C1CCN(S(=O)(=O)c2ccccc2C(F)(F)F)CC1)c1ccccc1 (stereo not given)	-6.8%	-15.7%
O=C1CN(C(=O)COC(=O)CCSc2ccccc2Cl)c2ccccc2N1	-4.0%	-9.0%
COCc1c(C(=O)N2CCCCC2c2cccnc2)cnn1-c1ncc2c(n1)-c1ccccc1CCC2 (stereo not given)	-3.7%	-19.8%
CCOCCCNC(=O)C(NC(=O)c1ccccc1O)c1ccc(C)cc1 (stereo not given)	-12.8%	-11.3%
CNC(=O)c1cccc(NC(=O)C(C)c2ccc3cc(OC)ccc3c2)c1 (stereo not given)	0.1%	47.3%[activator]
Cc1cnc(C)c(Nc2nc(C(N)Cc3ccc(C(F)(F)F)cc3)cs2)n1 (stereo not given)	u	11.2µM*
COc1ccc(C(=O)Nc2cc([N+](=O)[O-])ccc2N2CCCC2)cc1	-16.1%	-5.9%
CCCCSc1nnc2n(CCc3ccccc3)c(=O)c3c4c(sc3n12)COC(C)(C)C4	-15.5%	x
CCOC(=O)C1=C(C)NC(=O)NC1c1ccco1 (stereo not given)	-3.0%	-12.9%
O=C1C=C(c2ccccc2)CCC1	-16.0%	i
O=C(/C=C/Nc1ccc(S(=O)(=O)Nc2ncccn2)cc1)c1cccs1	-3.7%	-1.5%
CC(=O)N1CCc2c(sc3c2c(=O)n(-c2ccccc2)c(=O)n3CC(=O)c2ccc(F)cc2)C1	9.4%	-0.7%
CC(C)[C@H]1C(=O)N2CCC[C@H]2[C@]2(O)O[C@](NC(=O)[C@@H]3C=C4c5cccc6[nH]cc(c56)C[C@H]4N(C)C3)(C(C)C)C(=O)N12	11.2%	-5.5%
COc1cc(OC)c(OC)cc1CN1CCN(C(=O)COc2ccc3ccccc3c2)CC1	-25.0%	-29.0%
Cc1ccc(C)c(N2CCN(S(=O)(=O)c3ccc(C(=O)N(C)C)s3)CC2)c1	-9.3%	-13.5%
Cc1ccccc1Cn1cc(NC(=O)c2cc(-c3ccc(Cl)cc3)on2)cn1	4.3%	-9.7%
Cc1ccc2c(=O)cc(C(=O)Nc3ccc(S(=O)(=O)N(C)Cc4ccccc4)cc3)oc2c1	u	-17.3%
COc1ccc(C(C(=O)Nc2ccc3c(c2)OCCO3)n2c(=O)c(-c3cc4ccccc4[nH]3)nc3ccccc32)cc1 (stereo not given)	-22.8%	u
CCOc1ccc(/C=N/NC(=O)CN2CCSCC2)cc1	-10.1%	-10.4%
COc1ccc(C(=O)/C=C(/C)N(C)C)cc1	u	x
O=C(C1CCCCN1S(=O)(=O)c1ccc(F)cc1)N1CCN(c2ccccc2F)CC1 (stereo not given)	-13.9%	u
CCn1nc(C(=O)NC2=NCCS2)c2ccccc2c1=O	-8.5%	i
C=CCNC(=O)c1onc(CSc2cc(C)cc(C)c2)c1C(=O)O	-13.3%	-10.7%
CCCCC(C(=O)NC1CCCC1)N(C(=O)c1snc(C(N)=O)c1N)c1ccc(F)cc1 (stereo not given)	-6.7%	-5.0%
Cc1c(NC(=O)c2ccc(C(C)(C)C)cc2)cccc1[N+](=O)[O-]	-25.1%	u
COc1cccc(NC(=O)C2CCC(CNS(=O)(=O)c3ccc4c(c3)CC(C)N4C(C)=O)CC2)c1 (stereo not given)	-16.1%&-11.8%	-11.6%
COc1ccc(-c2[nH]ncc2CNC(C)CCn2cccn2)c(F)c1 (stereo not given)	-5.7%	i
CC(C)OC(=O)/C(C#N)=C/c1ccc(-c2ccc(Cl)c(Cl)c2)o1	-10.0%	i
O=C(c1ccc2c(c1)OCO2)C1CCCN(Cc2ccc3nsnc3c2)C1 (stereo not given)	-3.8%	-5.9%
Cc1ccc(F)c(S(=O)(=O)NC(=O)C2(C)CCN2C(=O)Cc2ccc(-c3ccccc3)cc2)c1 (stereo not given)	-9.9%	10.5%
CCOc1ccc(CCNC(=O)c2cc3c(C)nccc3[nH]c2=O)cc1OCC	-10.7%	i
Cc1ccc(-n2ncc3c(NCCCN4CCOCC4)ncnc32)c(C)c1	-24.3%	-0.6%
CCCCCCCCCCCCCCCCOC[C@H](COP(=O)([O-])OCC[N+](C)(C)C)OC(=O)NC	-11.8%[3.33 µM]	-16.6%[3.33 µM]
Cc1cc2nc(-c3ccc(NC(=O)c4cccnc4)cc3)oc2cc1C	-1.3%	-10.9%
O=C(O)c1ccc(CNCc2ccccc2Cl)cc1	4.5%	x
CC(C)CC1(C)NC(=O)N(CC(=O)Nc2ccc3c(c2)OCCO3)C1=O (stereo not given)	-9.6%	1.0%
Cc1cc(Nc2ccc3c(c2)OCCO3)c2cc(Cl)ccc2n1	-16.2%	-26.6%
Cc1ccc(C(=O)NCC(c2cccs2)S(=O)(=O)c2ccccc2)cc1C (stereo not given)	-16.8%	-25.4%
COc1ccc(/C=N/N2C(C)CCCC2C)cc1OC (stereo not given)	-4.4%	-11.8%

An excerpt from above in order of SMILES length, low to high:
SMILES	VACV Venus inh	Vaccinia mCherry
O=C(O)c1ccc(CNCc2ccccc2Cl)cc1	4.5%	x
COc1ccc(C(=O)/C=C(/C)N(C)C)cc1	u	x
COc1ccc(/C=N/N2C(C)CCCC2C)cc1OC (stereo not given)	-4.4%	-11.8%
CCOc1ccc(/C=N/NC(=O)CN2CCSCC2)cc1	-10.1%	-10.4%
CCn1nc(C(=O)NC2=NCCS2)c2ccccc2c1=O	-8.5%	i
Cc1cc(Nc2ccc3c(c2)OCCO3)c2cc(Cl)ccc2n1	-16.2%	-26.6%
C=CCNC(=O)c1onc(CSc2cc(C)cc(C)c2)c1C(=O)O	-13.3%	-10.7%
Cc1ccc(-n2ncc3c(NCCCN4CCOCC4)ncnc32)c(C)c1	-24.3%	-0.6%
O=C(c1ccc2c(c1)OCO2)C1CCCN(Cc2ccc3nsnc3c2)C1 (stereo not given)	-3.8%	-5.9%
Cc1ccc(C(=O)NCC(c2cccs2)S(=O)(=O)c2ccccc2)cc1C (stereo not given)	-16.8%	-25.4%
CC(C)CC1(C)NC(=O)N(CC(=O)Nc2ccc3c(c2)OCCO3)C1=O (stereo not given)	-9.6%	1.0%
O=C(C1CCCCN1S(=O)(=O)c1ccc(F)cc1)N1CCN(c2ccccc2F)CC1 (stereo not given)	-13.9%	u
CCCCC(C(=O)NC1CCCC1)N(C(=O)c1snc(C(N)=O)c1N)c1ccc(F)cc1 (stereo not given)	-6.7%	-5.0%
CCCCCCCCCCCCCCCCOC[C@H](COP(=O)([O-])OCC[N+](C)(C)C)OC(=O)NC	-11.8%[3.33 µM]	-16.6%[3.33 µM]
Cc1ccc(F)c(S(=O)(=O)NC(=O)C2(C)CCN2C(=O)Cc2ccc(-c3ccccc3)cc2)c1 (stereo not given)	-9.9%	10.5%

More structures.
SMILES	VACV Venus inh	Vaccinia mCherry
O=C(CSc1ccc(-c2ccco2)nn1)NCc1ccccc1Cl	-8.7%	-10.5%
CCOCCCNC(=O)CN(c1cc([N+](=O)[O-])ccc1OC)S(C)(=O)=O	-2.9%	-14.4%
Cc1ccc(NC(=O)CN2C(=O)NC3(CCc4ccccc43)C2=O)cc1S(=O)(=O)N1CCCCC1 (stereo not given)	-29.6%	-20.3%
COc1ccccc1N1CCN(C(=O)/C=C/c2ccc3c(c2)OCO3)CC1	-10.6%	i
